Mtb H37Rv – Mycobacterium tuberculosis H37Rv growth inhibition, cell based, confirmatory dose response (AID 1949) | hit rate 1.6% among 100,000 | inhibition, % at 10 µg/mL, or IC50 in µg/mL where a hit was titrated | most inactive calls were filed without a number and no value below 0 was filed;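 active means confirmed in a dose series; inconclusive means about 50% or more but not retested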;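 further: bacteria grown 7 days with compound before Alamar blue readout; 0% = untreated bacteria and 100% = reference antibiotic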
Active calls of the source: *; i = inactive; u = inconclusive. These rows are one share of the data; rates above refer to the full screens.

SMILES,Mtb H37Rv
CCOc1ccc(C(=O)Nc2ccc(F)cc2F)cc1Br,u
CCc1cc(-c2n[nH]c(C)c2Oc2ccc(C(C)C)cc2)c(O)cc1O,2%
Fc1ccccc1COc1cccc(C(=S)N2CCOCC2)c1,3%
O=C(Nc1ncnc2sc3c(c12)CCCC3)c1ccccc1,2%
O=C(Nc1nccs1)c1ccc(NS(=O)(=O)c2ccc(Cl)cc2)cc1,i
COc1ccc(NC(=O)c2ccc(-c3csc(C)n3)cc2)cc1,i
CC(C)C(=O)N1CCN(c2ccc([N+](=O)[O-])c(NC3CC3)c2)CC1,5%
Fc1ccc(C=NN2CCN(C3c4ccccc4-c4ccccc43)CC2)cc1,i
CCCOc1ccccc1NC(=O)C(C)Oc1ccccc1 (stereo not drawn),i
Cc1ccc(C)c(S(=O)(=O)N2CCN(c3cccc(C)c3C)CC2)c1,20%
Cc1ccc(Nc2nc(N)nc(CN3CCCCCC3)n2)cc1,i
COc1cc(CNCc2ccncc2)cc(Br)c1OCc1ccccc1F,12%
Cc1ccc(S(=O)(=O)N2C(=O)CCC2C(=O)Nc2ccc(C)c(C)c2)cc1 (stereo not drawn),i
Cc1ccc(C(=O)N2CCc3ccccc32)cc1Cl,i
Cn1c(CNc2nc3ccccc3n2C)nc2ccccc21,i
CC(C)C(C(=O)Nc1ccccc1)N1C(=O)c2ccccc2C1=O (stereo not drawn),i
CCCn1c2ccccc2c2nnc(SC(CC)C(=O)Nc3ccccc3C#N)nc21 (stereo not drawn),i
CCC(=O)Oc1ccc(C(=O)NCc2ccc(C)cc2)cc1,12%
Cc1cc(Cl)ccc1NC(=S)Nc1cccc(F)c1,34%
O=C1CCCC2=C1C(c1cccs1)n1c(nc3ccccc31)N2 (stereo not drawn),i
O=C(CS(=O)(=O)Cc1ccccc1)Nc1cc(Cl)ccc1Cl,6%
COc1ccc(Cl)cc1NC(=O)C12CCC(C)(C(=O)C1)C2(C)C (stereo not drawn),i
Cc1cc(C)c2cccc(NC(=O)c3cccc(N4C(=O)CCC4=O)c3)c2n1,i
CC(C)CNC(=O)c1cccc(NC(=O)c2ccc(Cl)c(Cl)c2)c1,i
COc1ccc(OCCSc2nc3ccccc3n2CCC(=O)O)cc1,1%
Cc1ccc(NC(=S)NNC(=O)C2CCN(S(=O)(=O)c3ccc(Cl)cc3)CC2)c(C)c1,2%
CC(C)(C)n1cnc2cc(NC(=O)c3ccc(Cl)cc3)ccc21,0.99µg/mL*
Cc1ccc(C(=O)CC(=O)c2ccco2)c(O)c1,42%
CCc1ccc(NC2=NC(C(=O)NC3CCCCC3)CC(=O)N2)cc1 (stereo not drawn),i
CC1CCc2sc3nc[nH]c(=O)c3c2C1 (stereo not drawn),i

Molecules above that contain a thiophene ring, fused or not:
SMILES,Mtb H37Rv
O=C(Nc1ncnc2sc3c(c12)CCCC3)c1ccccc1,2%
O=C1CCCC2=C1C(c1cccs1)n1c(nc3ccccc31)N2 (stereo not drawn),i
CC1CCc2sc3nc[nH]c(=O)c3c2C1 (stereo not drawn),i

Quoted at random: two entries already listed.
SMILES,Mtb H37Rv
Cc1ccc(Nc2nc(N)nc(CN3CCCCCC3)n2)cc1,i
Cc1ccc(C(=O)N2CCc3ccccc32)cc1Cl,i

Other results follow.
SMILES,Mtb H37Rv
CC(C)c1ccc(CNC(=O)C(=O)NCc2cccnc2)cc1,i
Cc1ccc(NC(=O)C(C)Sc2nnc(NC(=O)COc3ccccc3)s2)cc1 (stereo not drawn),i
Cc1nn(Cc2ccccc2Cl)c(C)c1[N+](=O)[O-],i
CCC(=O)Nc1ccc(Cl)c(NC(=O)c2ccc(Br)cc2)c1,4%
CC(C)c1ccc(C(=O)Nc2ccc(S(N)(=O)=O)cc2)cc1,i
Cc1cc(OCC(=O)Nc2ccc(Cl)cn2)cc(C)c1Cl,1%
COc1ccc(CNC(=O)C(C)Sc2ccc(C)cc2)cc1 (stereo not drawn),i
O=C(O)CNC(=O)c1cc(Br)ccc1O,i
COc1cc(C2NC(=O)NC(C)=C2C(=O)OCc2ccccc2)ccc1O (stereo not drawn),1%
O=C(O)CSc1cccc2cccnc12,i
CSc1cccc(NC(=O)CN(Cc2ccccc2)S(C)(=O)=O)c1,i
Cc1cc(C)nc(Nc2ccc(F)cc2)n1,i
CCOCCC(=O)N(CC)c1ccccc1,i
CC(=O)C1=C(C)OC(N)=C(C(=O)OC(C)C)C12C(=O)Nc1ccccc12 (stereo not drawn),i
N#CCC(=O)NNC(=S)Nc1ccc(F)cc1F,i
Cc1cc(C)c(S(=O)(=O)N(C)CC(=O)Nc2ccc3c(c2)OCO3)c(C)c1,i
Cc1c(C=O)c2ccccc2n1CC(=O)NCc1ccc2c(c1)OCO2,i
Cc1cccc(NC(=O)CN(c2ccc(C(C)C)cc2)S(C)(=O)=O)c1,10%
Cc1c(/C(O)=C2\C(=O)C(=O)N(Cc3cccnc3)C2c2cccc([N+](=O)[O-])c2)cnn1-c1ccccc1 (stereo not drawn),i
CN(c1ccc(C(=O)NCCc2ccccc2)cc1)S(C)(=O)=O,i
COc1cc(C2CC(=O)Nc3c2ccc2ccccc32)c(Br)c(OC)c1OC (stereo not drawn),9%
O=S(=O)(Nc1ccc(F)c(F)c1)c1ccc2ccccc2c1,5%
O=S(=O)(c1ccc(Br)c2ccccc12)N1CCCC1,i
O=C(Nc1ccc2c(c1)OCCO2)c1c(F)c(F)c(F)c(F)c1F,i
CCCCC(=O)Nc1ccc(C(C)C)cc1,i
O=C(Cc1nc(-c2ccc([N+](=O)[O-])cc2)cs1)Nc1ccccc1,i
Cc1cc(C)cc(N(C(C)C(=O)Nc2c(C)n(C)n(-c3ccccc3)c2=O)S(C)(=O)=O)c1 (stereo not drawn),i
CCC(C)(C)NC(=O)c1ccccc1C,i
Cc1cc(OC(C)C(=O)Nc2ccccc2C(N)=O)cc(C)c1Cl (stereo not drawn),2%
Cc1cnn(CCCNC(=S)Nc2ccc(S(N)(=O)=O)cc2)c1,i
CCCOc1cccc(C2c3c(oc4ccccc4c3=O)C(=O)N2c2ccc(C)cn2)c1 (stereo not drawn),7%
O=Cc1ccc(OC(=O)c2ccccc2Cl)cc1,39%
CC(=O)CC(=O)Nc1ccc(Cl)c(C(F)(F)F)c1,i
O=C(CC1(O)C(=O)N(CCc2ccccc2)c2ccc(Cl)cc21)c1ccc(Cl)s1 (stereo not drawn),5.2µg/mL*
Cc1c(NC(=O)CN(c2cccc(Cl)c2Cl)S(C)(=O)=O)cccc1[N+](=O)[O-],i
O=C(CN(C1CCCCC1)S(=O)(=O)c1ccccc1)Nc1cccc(F)c1,3%
CC1(C)CC(=O)C2=C(C1)Nc1[nH]n(-c3ccccc3)c(=O)c1C2c1ccccc1F (stereo not drawn),1%
CS(=O)(=O)N(CC(=O)Nc1cccnc1)c1ccc(I)cc1,i
CCNc1nnc(-c2ccc(Cl)cc2)s1,i
O=C(Oc1ccc(Br)cc1C(=S)N1CCOCC1)c1ccc(F)cc1,i
O=C(Nc1cccc(Cl)c1Cl)N1CCC2(CC1)OCCO2,i
Fc1cccc(CN2CCC(N3CCCC3)CC2)c1,i
COc1ccccc1OCC#CCN1CCCC(C)C1 (stereo not drawn),i
CCC(C)c1ccccc1OCCCNC(C)(C)C (stereo not drawn),i
Cc1cccc(S(=O)(=O)N2CCN(Cc3ccccc3)CC2)c1,i
Cc1ccc(S(=O)(=O)N(C)CCCC(=O)n2cnc3ccccc32)cc1,i
O=C(NCc1cccs1)C(=O)Nc1ccccc1F,i
O=C(Nc1ccc2c(c1)OCO2)OCc1ccccc1,6%
COc1ccc(NC(=O)CNC(=O)CNC(=O)Cc2ccc(Cl)cc2)cc1,i
COC(=O)c1sc2nc(-c3ccc(C)o3)cc(C(F)(F)F)c2c1N,i
COc1ccc(NC(=O)C2(c3ccc(NC(=O)c4ccc(OC(C)=O)cc4)cc3)CCCC2)cc1,i
CCOC(=O)C1C2C=CC(C3CC23)C1C(=O)OCc1ccccc1Cl (stereo not drawn),4%
CCOC(=O)c1c(CC(C)C)csc1NC(=O)COc1ccccc1C,11%
CSc1ccc(C(=S)N2CCN(Cc3ccccc3)CC2)cc1,i
COc1ccc(CCNS(=O)(=O)c2ccc(C(C)(C)C)cc2)cc1OC,2%
Cc1ccccc1OCCn1cc(C(=S)N2CCC(C(N)=O)CC2)c2ccccc21,i
NC(=O)c1ccc(NCCCN2CCOCC2)c([N+](=O)[O-])c1,8%
COc1ccc(C(=O)NCCNc2ccc([N+](=O)[O-])cc2C(F)(F)F)cc1,i
COc1cccc(C(=O)NCc2ccc(C)cc2)c1,4%
O=C(CCc1ccccc1)NC(c1cccc([N+](=O)[O-])c1)c1c(O)ccc2ccccc12 (stereo not drawn),i

Among those listed so far, 7 contain an aryl thioether with sulfur outside any ring:
SMILES,Mtb H37Rv
CCCn1c2ccccc2c2nnc(SC(CC)C(=O)Nc3ccccc3C#N)nc21 (stereo not drawn),i
COc1ccc(OCCSc2nc3ccccc3n2CCC(=O)O)cc1,1%
Cc1ccc(NC(=O)C(C)Sc2nnc(NC(=O)COc3ccccc3)s2)cc1 (stereo not drawn),i
COc1ccc(CNC(=O)C(C)Sc2ccc(C)cc2)cc1 (stereo not drawn),i
O=C(O)CSc1cccc2cccnc12,i
CSc1cccc(NC(=O)CN(Cc2ccccc2)S(C)(=O)=O)c1,i
CSc1ccc(C(=S)N2CCN(Cc3ccccc3)CC2)cc1,i

Additional compounds follow.
SMILES,Mtb H37Rv
CCC(C)(C)c1ccc(OCCN2CCNCC2)cc1,i
NC(=O)C1CCN(C(=O)c2ccc3c(=O)n(CCC4=CCCCC4)c(=S)[nH]c3c2)CC1,i
c1cc(CN2CCN(C3CCCCCC3)CC2)ccn1,i
Cc1ccc(-n2c(SCC(=O)C(C)(C)C)nnc2-c2ccncc2)cc1,i
CCCCC(=O)Nc1ccc(C(=O)Nc2ccc(Cl)cn2)cc1,i
O=S(=O)(c1ccccc1)c1nc(-c2cccc(Cl)c2)oc1N1CCOCC1,i
CC(=O)Nc1ccc(S(=O)(=O)N2CCN(C(=O)Cc3ccccc3)CC2)cc1,i
Cc1ccc(NC(CC(=O)c2ccccc2)c2ccccc2)cc1 (stereo not drawn),i
COc1ccc(-c2nc(-c3cccs3)c(-c3cccs3)[nH]2)cc1OC,i
CCc1nc2ccc(Br)cc2c(=O)n1-c1ccccc1Cl,i
COC(=O)c1ccc(OC(=O)COc2cc(Cl)ccc2Cl)cc1,i
Cc1ccccc1Oc1ccc(S(=O)(=O)Nc2cccnc2)cc1,i
COc1cc(N)ccc1NC(=O)c1ccco1,i
O=C(Nc1cc(C(F)(F)F)ccc1N1CCOCC1)c1ccc(Br)cc1,i
COc1ccc(C(=O)NCCN(C)C)c(OC)c1,i
O=c1cc(O)nc(SCc2ccccc2)[nH]1,3%
O=C(NCc1ccccc1)C1Cc2ccccc2CN1S(=O)(=O)c1ccc(F)cc1 (stereo not drawn),2%
CCOC(=O)c1ccc(NC(=O)CSc2nc3ccc(NC(C)=O)cc3s2)cc1,i
O=C(c1ccco1)N1CCN(Cc2nnc(-c3ccccc3)o2)CC1,i
COC(=O)c1ccc2c(=O)n(CCCN3CCCC3=O)c(=S)[nH]c2c1,i
O=C1CC(Nc2ccc(CCO)cc2)C(=O)N1c1ccc(F)cc1 (stereo not drawn),i
CCOc1ccc(NC(=O)C(C)Sc2nnc(C(c3ccccc3)c3ccccc3)n2C)cc1 (stereo not drawn),0%
CC(=O)Nc1ccc(N2CCCCC2)c(C(=O)Nc2cccc(C)c2)c1,i
COc1ccc(C)cc1NC(=O)CN(c1ccccc1Cl)S(C)(=O)=O,1%
CC(=O)Oc1ccc(NC(=O)CC2Nc3ccccc3NC2=O)cc1 (stereo not drawn),i
COc1ccccc1OCC(=O)Nc1cc(C)ccc1F,2%
CCCCC(SCC(=O)Nc1ccccc1)C(=O)O (stereo not drawn),1%
O=C(NCC1CCCO1)C1CCN(S(=O)(=O)c2ccc(Br)cc2)CC1 (stereo not drawn),0%
CCOC(=O)c1ccc(NC(=S)NNC(=S)NC2CCCCC2)cc1,i
CCc1cccc(CC)c1NC(=O)Nc1ccc2c(c1)OCO2,i
O=c1oc2ccccc2cc1Br,i
CC1Cc2ccccc2N1C(=O)Nc1cccc(Cl)c1 (stereo not drawn),6%
O=C(O)CC(NC(=O)OCc1ccccc1)c1ccccc1 (stereo not drawn),i
O=Cc1cn(CCCOc2ccccc2)c2ccccc12,i
C=CCNC(=O)c1ccccc1-c1ccccc1,2%
Cc1cc(Cl)ccc1NC(=O)C(Cc1ccccc1)N1C(=O)c2ccccc2C1=O (stereo not drawn),i
COc1cc(CO)cc(Cl)c1OCc1ccccc1,10%
Cc1ccc(C(=O)N2CCC(C(=O)NCc3ccco3)CC2)cc1,0%
CC(=O)c1sc2ccccc2c1OC(=O)c1ccccc1[N+](=O)[O-],i
O=C1c2cccc3c(Br)ccc(c23)C(=O)N1c1cc(Cl)ccc1Cl,i
COc1cc(NC(=O)c2cc(OC)c(OC)cc2OC)cc(OC)c1,i
O=C(CSCc1c(F)cccc1Cl)NCC1CCCO1 (stereo not drawn),i
COc1ccc(S(=O)(=O)N2CCN(c3ccccc3OC)CC2)cc1C,2%
COc1cccc(-c2nn(-c3ccccc3)cc2C(=O)Nc2cccc(C(=O)O)c2)c1,i
CCCc1cc(C(=O)OC)c(NC(=O)c2cccc(OC)c2OC)s1,49%
O=C(O)COc1ccc(Cl)cc1CO,i
